GLA inh pH 4.5 – qHTS Assay for Inhibitors of Human alpha-Galactosidase at pH 4.5. Alpha-galactosidase A (Homo sapiens), P06280. 230,000 tested, under 10 active. purified enzyme, 4-MU-alpha-Gal fluorescence, pH 4.5. activity change, negative = inhibition, % at 105 µM; inconclusive = small, poorly fitted or top-dose-only inhibition, or a rising curve; inactive = flat fitted curve, though single readings scatter; no compound was filed as active;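 note: 0% = full activity with enzyme and -100% = basal without enzyme; dose as in the result columns while the protocol names 77 µM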
Target sequence (P06280 whole entry, looked up): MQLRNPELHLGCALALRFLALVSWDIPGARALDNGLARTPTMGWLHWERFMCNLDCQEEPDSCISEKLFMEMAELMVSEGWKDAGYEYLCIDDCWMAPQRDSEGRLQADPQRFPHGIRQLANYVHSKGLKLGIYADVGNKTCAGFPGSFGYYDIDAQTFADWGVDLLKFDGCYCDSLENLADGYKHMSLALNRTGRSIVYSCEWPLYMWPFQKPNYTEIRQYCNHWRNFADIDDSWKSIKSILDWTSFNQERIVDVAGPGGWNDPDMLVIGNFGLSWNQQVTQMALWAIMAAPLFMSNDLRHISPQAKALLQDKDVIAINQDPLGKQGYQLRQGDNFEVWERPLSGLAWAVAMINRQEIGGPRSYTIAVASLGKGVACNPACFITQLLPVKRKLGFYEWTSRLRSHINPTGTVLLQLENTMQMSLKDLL
Rango release inh – qHTS Assay for Inhibitors of RanGTP induced Rango (Ran-regulated importin-beta cargo) - Importin beta complex dissociation. Snurportin-1 (Homo sapiens) + GTP-binding nuclear protein Ran (Homo sapiens) + Importin …. Biochemical FRET Rango-importin beta, RanGTP-induced dissociation. Potency, µM (titrated, usually from 46.1 µM), for the others: at the top dose activity change, negative = inhibition. hit rate 0.071% among 340,000. AID 540253, 2011; active means falling FRET ratio curve, often poorly fitted, with flat reads before Ran was added; inconclusive means other falling curves, or compound fluorescence or quenching; inactive means flat or rising ratio curve;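 note: potency is the fitted concentration of half-maximal effect; % of control where 0% means no effect; nearly all actives have a fitted effect of over 45% in size; -100% = wells without RanGTP and RCC1; the record marks most hits as doubtful in a second field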
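Compounds preincubate 5 min with complex of recombinant Rango and importin beta in PBS with 1 mM DTT. Ran (0.6 uM) loaded with 2 mM GTP plus 0.2 uM RCC1 starts dissociation; FRET is recorded 45 min later.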
miR-21 reporter – qHTS Assay for Modulators of miRNAs and/orActivators of miR-21; AID 2288, 2010; 340,000 tested, under 10 active; Potency, µM (titrated, usually from 38.3 µM), for inactives: at the top dose reporter change, positive = more light; HeLa miR-21 FLuc reporter, luciferase, 48 h; active = well fitted rising curve with a large enough effect; inconclusive = small, poorly fitted or top-dose-only effect; inactive = no such curve, though single readings can be large or run the other way;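 note: % of control where 0% means no effect; miR-21 action dims this reporter so a rising signal means less miR-21 action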
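HeLa cells stably expressing CMV-driven firefly luciferase with a downstream miR-21 binding sequence, endogenously expressing miR-21, were treated with titrations (up to about 40uM final) for 48 hours at 37 degree Celsius. Luciferase luminescence was read after lysis.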
Rango-impB inh – qHTS Assay for Inhibitors of Rango (Ran-regulated importin-beta cargo) - Importin beta complex formation. Importin subunit beta-1 (Homo sapiens), Q14974. Rango CFP/YFP FRET sensor + importin beta, 45 min. Potency, µM (titrated, usually from 92.2 µM), inactives show at the highest dose inhibition of complex formation. hit rate 0.031% among 340,000; active = rising FRET ratio curve, often small or poorly fitted; inconclusive = mostly compound fluorescence or quenching in the first reads; inactive = flat curves in all reads;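 note: potency is the fitted concentration of half-maximal effect; 0% = DMSO wells and 100% = buffer wells lacking importin beta; nearly all actives have a fitted effect of over 15% in size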
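FRET biosensor (snurportin 1 IBB flanked by EYFP and cerulean), 50 nM, with compound 5 min, then 0.125 microM importin beta in PBS, 1 mM DTT, 0.02% Tween-20, 0.1% BSA. CFP/YFP ratio read after 45 min at room temperature; pre-read flags interference.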
* = called active by the depositor; u = inconclusive; x = no result given; & = joins results of further samples. These rows are one share of the data, so the mix of outcomes need not match the whole.

Preview:
GLA inh pH 4.5 | Rango release inh | miR-21 reporter | Rango-impB inh | mol
1 | 11% | -7% | -0.4% | COc1cccc(-n2ccnc2SCC(=O)N2CCc3ccccc32)c1
x | 0% | 0% | 0.0% | Cc1cc2oc(=O)cc(CN(C)Cc3ccc(OC(F)F)cc3)c2cc1Cl
-7 | 7% | -7% | -5.6% | NC(=O)COc1cccc2cccnc12
-2 | -4% | -4% | 1.7% | O=C(Nc1cccc(F)c1)NC1(C(=O)N2CCN3CCCC3C2)CCCCC1 (stereo not drawn)
18 | u | -11% | u | COc1ccc2c(c1)C(C)=CC(C)(C)N2C(=O)Nc1ccccc1
x | 6% | 0% | 6.1% | Cc1cc(OCC(=O)Nc2ccc(CN3CCOCC3)cc2)ccc1Cl

The whole of this part, from the first entry:
GLA inh pH 4.5 | Rango release inh | miR-21 reporter | Rango-impB inh | mol
1 | 11% | -7% | -0.4% | COc1cccc(-n2ccnc2SCC(=O)N2CCc3ccccc32)c1
x | 0% | 0% | 0.0% | Cc1cc2oc(=O)cc(CN(C)Cc3ccc(OC(F)F)cc3)c2cc1Cl
-7 | 7% | -7% | -5.6% | NC(=O)COc1cccc2cccnc12
-2 | -4% | -4% | 1.7% | O=C(Nc1cccc(F)c1)NC1(C(=O)N2CCN3CCCC3C2)CCCCC1 (stereo not drawn)
18 | u | -11% | u | COc1ccc2c(c1)C(C)=CC(C)(C)N2C(=O)Nc1ccccc1
x | 6% | 0% | 6.1% | Cc1cc(OCC(=O)Nc2ccc(CN3CCOCC3)cc2)ccc1Cl
x | 14% | -5% | 0.3% | COc1ccc(NC(=O)CSc2ccc3nnc(-c4ccccn4)n3n2)c(OC)c1
-5 | 8% | 3% | -0.7% | Cc1ccccc1OCCSCc1nc2ccccc2[nH]1
x | 7% | x | 2.8% | CCCN(C(=O)Cc1csc(-c2ccccc2)n1)C1CCS(=O)(=O)C1 (stereo not drawn)
5 | 0% | -1% | 5.2% | O=C(N=Nc1c(O)[nH]c2ccccc12)c1cccc(S(=O)(=O)N2CCCCC2)c1
x | 7% | 15% | 0.3% | Cc1cc(NC(=O)CCN2CCN(Cc3ccccc3)CC2)ccc1Br
0 | 28% | -19% | 0.9% | CC(C)(C)OC(=O)N/N=C/c1ccc(C(=O)O)cc1
-4 | 7% | 3% | 0.3% | COc1ccc(C2/C(=C(/O)c3ccccc3)C(=O)C(=O)N2CO)cc1 (stereo not drawn)
x | -3% | x | 3.1% | CCOc1ccc(S(=O)(=O)N2CCC(C(=O)OC(C)C(=O)N3CCOCC3)CC2)cc1 (stereo not drawn)
x | 2% | 1% | 0.4% | CC(Cc1cccnc1)NC(=O)c1cc(COc2c(F)cccc2F)on1 (stereo not drawn)

Next section.
GLA inh pH 4.5 | Rango release inh | miR-21 reporter | Rango-impB inh | mol
x | -3% | x | -4.0% | CC1CN(S(=O)(=O)c2cccc(C(=O)N3CCC(C(N)=O)CC3)c2)CC(C)O1 (stereo not drawn)
x | 1% | x | 0.6% | COc1cccc(N2CCN(CC(=O)NC(=O)NC3CCCCC3)CC2)c1
x | 6% | 4% | -2.8% | COC(=O)C(Cc1c[nH]c2ccccc12)NC(=O)C(=O)c1c[nH]c2ccccc12 (stereo not drawn)
x | 12% | 0% | 7.8% | O=C(c1cc2ccccc2o1)N1CCN(Cc2ccc3c(c2)OCO3)CC1
3 | 5% | -1% | u | Cc1ccc2c(c1)C(c1ccc(O)cc1)(c1ccc(O)cc1)C(=O)N2C
-2 | -13% | -6% | 2.4% | CC(C)(C)NC(=O)C1CCCN(S(=O)(=O)c2cccc3cccnc23)C1 (stereo not drawn)
x | u | 5% | u | CCOC(=O)C1=C(C)N=c2s/c(=C/c3ccc(OCC(=O)O)cc3)c(=O)n2C1c1ccc(F)cc1 (stereo not drawn)
7 | 5% | 1% | 4.5% | NC(=O)c1cccn1-c1ncc(C(F)(F)F)cc1Cl
x | -6% | -1% | -0.2% | COC(=O)c1cccc(N/C=C(\[N+](=O)[O-])S(=O)(=O)c2ccccc2)c1
3 | x | 1% | x | COC(=O)[C@@H](N)Cc1ccc(O)cc1
x | -9% | x | -3.2% | O=C(COC(=O)Cc1n[nH]c(=O)c2ccccc12)NNC(=O)c1ccc(Cl)cc1
4 | 1% | -23% | -2.2% | CCn1ncc(/C=C/C(=O)C2CC2)c1C
x | 1% | -61% | 3.2% | Cc1cc(=O)oc2cc(NC(=O)c3ccccc3OC(F)F)ccc12
-6 | 7% | -1% | -4.6% | O=S(=O)(Nc1ccc(N2CCOCC2)cc1)c1ccc2ccccc2c1
0 | -1% | -1% | -0.6% | CCN(CC)c1ccc(NC(=O)CN2CCN(CC(=O)Nc3ccccc3F)CC2)cc1

Remaining list, next part:
GLA inh pH 4.5 | Rango release inh | miR-21 reporter | Rango-impB inh | mol
0 | 0% | 11% | u | O=C(NCc1cccnc1)c1cc(C(=O)C2CC2)c[nH]1
-5 | -2% | -1% | u | CCCCN(C(=O)Cn1ncc(Cl)c(Cl)c1=O)c1c(N)n(CC(C)C)c(=O)[nH]c1=O
x | -3% | 5% | -2.9% | COc1cccc(C2CC(c3ccc(C)cc3)=NN2C(=O)c2ccccc2F)c1OC (stereo not drawn)
x | 3% | x | 0.3% | Cc1ccc(C)c(OCCC(=O)OCC(=O)NC(=O)NC2CCCC2)c1
1 | -5% | -32% | 4.6% | O=C(Nc1ccc2c(c1)OCO2)c1ccncc1
x | -2% | x | 0.4% | CC(O)CNc1nc(N)[nH]c(=O)c1N=Nc1ccccc1 (stereo not drawn)
8 | 2% | 25% | 2.0% | c1ccc(C2=NNC(=NC3CC3)SC2)cc1
-3 | 2% | -16% | 0.2% | CCOc1ccc2nc(NC(=O)CSc3ccc(Cl)cc3)sc2c1
-7 | 7% | 0% | 0.9% | C=CC[C@@H]1Cc2c(Br)ccc(Br)c2[C@@H](CC=C)N1
-1 | -4% | 2% | -2.4% | CCOC(=O)N1CCC(NC(=O)C2CCCN(Cc3nc(-c4cccc(Cl)c4)oc3C)C2)CC1 (stereo not drawn)
-13 | -6% | -1% | -1.6% | O=C1CCCC(O)=C1C=Nc1cccc(C(F)(F)F)c1
-11 | 5% | -12% | u | COc1ccccc1C(=O)O/N=C(/c1ccncc1)c1ccc([N+](=O)[O-])cc1
0 | -17% | -9% | -2.2% | O=C(NCCNc1ccc([N+](=O)[O-])cc1)c1cccc2c(Br)cccc12
1 | -13% | -1% | 2.9% | CCOC(Cn1c(SCc2cc(C(C)=O)ccc2OC)nc2ccccc2c1=O)OCC
x | -18% | 3% | -1.7% | NC(=O)CCn1c(C(=O)c2cccc([N+](=O)[O-])c2)c2ccccc2[n+]1[O-]

Looked up by structure from above, 2 records:
GLA inh pH 4.5 | Rango release inh | miR-21 reporter | Rango-impB inh | mol
x | 3% | x | 0.3% | Cc1ccc(C)c(OCCC(=O)OCC(=O)NC(=O)NC2CCCC2)c1
x | -2% | x | 0.4% | CC(O)CNc1nc(N)[nH]c(=O)c1N=Nc1ccccc1 (stereo not drawn)

(next part)
GLA inh pH 4.5 | Rango release inh | miR-21 reporter | Rango-impB inh | mol
-15 | -14% | -34%&-28% | -4.6% | O=C(Cn1cc(SCc2ccc(Cl)cc2)c2ccccc21)N1CCOCC1
5&5 | -5% | -13%&-10% | 2.7% | Cc1cc(NC(=O)Nc2cccc3ccccc23)no1
-5 | -1% | 15% | 0.2% | COc1cc(C(=O)Sc2ccc(C)cc2)cc(OC)c1OC
x | -14% | x | 2.5% | CC(=O)S[C@@H]1CC2=CC(=O)CC[C@]2(C)[C@H]2CC[C@@]3(C)[C@@H](CC[C@@]34CCC(=O)O4)[C@H]12
-2 | -2% | -1% | 3.4% | COC(=O)C1C(=O)c2c(n[nH]c2C)CC1(C)C (stereo not drawn)
15 | 0% | -1% | -0.3% | C/C(=N\c1nc2ccccc2n1C)c1cc(Cl)ccc1O
-5 | 12% | 0% | 0.8% | O=C1CC2CS(=O)(=O)CC2N1c1ccc(Cl)cc1Cl (stereo not drawn)
1 | 3% | -8% | 5.6% | Cc1cccc(CSc2nnc(-c3cccs3)n2Cc2ccco2)c1
x | 1% | 0% | -5.0% | Cc1ccc(CSCCNS(=O)(=O)c2ccc([N+](=O)[O-])cc2)cc1
x | 22% | x | 2.4% | O=C(CNC(=O)c1cc(S(=O)(=O)N2CCCCC2)ccc1N1CCOCC1)Nc1ccc(F)c(F)c1
x | 9% | x | -6.8% | Cc1ccc(S(=O)(=O)N2CCOCC2)cc1NC(=O)CSc1nnc(COc2ccccc2F)n1N
6 | 1% | -1% | 3.4% | Cc1ccc(CN(c2ccc(C(=O)N3CCCC3)cc2)S(C)(=O)=O)cc1
x | -2% | -4% | -0.4% | CC(C)[C@H](NC(=O)[C@@H]1Cc2ccccc2CN1)C(=O)NC1CCCCC1
-5 | u | u | u | CC1(C)CC(=O)C2=C(C1)OC1=C(C(=O)CC(C)(C)C1)C2c1ccc(O)cc1O
x | -3% | x | -1.8% | O=C(CCNC(=O)c1ccc(Br)cc1)Nc1cc(Cl)ccc1-n1cncn1

Remaining list, next part:
GLA inh pH 4.5 | Rango release inh | miR-21 reporter | Rango-impB inh | mol
-1 | 12% | 10% | 2.0% | COc1ccc(NC(=O)CSc2nnc(-c3ccoc3C)n2CCc2ccccc2)cc1
-11 | -2% | -10% | -1.6% | Cc1ccccc1-n1c(SCC(=O)N/N=C/C=C/c2ccccc2[N+](=O)[O-])nc2ccccc2c1=O
-6 | 1% | -4% | -0.2% | Cc1ccc(NC(=O)CSCC(=O)Nc2ccc(N3CCOCC3)c(Cl)c2)cc1
-21 | u | 3% | -0.8% | Cc1ccc2nc(SCC(=O)Nc3cccc([N+](=O)[O-])c3)[nH]c2c1
-2 | 2% | -53% | -0.6% | COc1ccc(-c2nc3ccccn3c2C=O)cc1
x | -24% | -2% | -5.4% | CCCNC(=O)/C(C#N)=C1\N=C(NC(=O)c2cccs2)c2ccccc21
2 | 2% | -11% | -5.5% | CC(C)(C)NS(=O)(=O)c1ccc(-c2csnn2)s1
3 | u | 5% | u | CCN(CC)c1ccc(/C=N/NC(=O)Cc2cccs2)c(O)c1
-7 | 9% | -4% | -2.4% | O=C(NS(=O)(=O)c1ccccc1)c1ccccc1O
-26 | -14% | 14% | -4.6% | COc1cccc(NC(=O)c2cc([N+](=O)[O-])ccc2NCc2cccnc2)c1
-17 | 5% | -40% | -5.0% | COc1ccccc1C(=O)NNC(=O)c1ccccc1F
x | 0% | -4% | 1.7% | O=C(CSc1ccccc1Cl)N1CCOCC1
x | -2% | -21% | 0.7% | O=C(COc1cc2oc(=O)cc(-c3ccccc3)c2cc1Cl)NCC1CCC(C(=O)O)CC1 (stereo not drawn)
-11 | 14% | -48% | 0.0% | COc1cc(C(=O)Nc2ccc3c(c2)OCCO3)ccc1OC(C)C
4 | -1% | -1% | -0.5% | NCCCCCc1nnc(SCC(=O)c2ccc(Cl)cc2)o1

(next part)
GLA inh pH 4.5 | Rango release inh | miR-21 reporter | Rango-impB inh | mol
-16 | 0% | 8% | u | COc1cc(/C=C/C(=O)NCc2cccnc2)cc(OC)c1OC
7 | -10% | -1% | -0.8% | Cc1cc([N+](=O)[O-])nn1CC(=O)NCCCn1ccnc1
x | 9% | x | 0.4% | Cc1cc(NS(=O)(=O)c2ccc(NC(=O)c3cnc(Cl)c(Cl)c3)cc2)nc(C)n1
x | 3% | x | 2.8% | CCOC(=O)C1=C(COC(=O)c2ccc([N+](=O)[O-])o2)NC(=O)NC1C (stereo not drawn)
8 | 7% | 2% | 0.1% | CSc1ncccc1C(=O)OCC(=O)N(CC(C)C)C1CCS(=O)(=O)C1 (stereo not drawn)
x | 0% | 0%&15% | -2.4% | Cn1cc(CCC(=O)NCc2ccc(Cl)cc2)c2ccccc21
-4 | -2% | 2% | -0.3% | CCCCNC(=O)Nc1c(C(=O)OCC)[nH]c2ccccc12
0 | -11% | 1% | -2.3% | CCOC(=O)N1CCC(NC(=O)c2cc(S(=O)(=O)N(CC)CC)ccc2F)CC1
